Compound activity deposited in PubChem by several laboratories.
INS promoter inh – TRM-6 insulin promoter activity inhibition; TRM-6 cells (human fetal islet line), insulin promoter-eGFP reporter, imaging; reporter expression induced with tamoxifen; inhibition, % at 2 µM; hit rate 0.9% among 130,000;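 active = inhibition above the mean plus 3 SD, with well images judged a real hit on visual review, cut at about 60% in these data, passing the limit was not always enough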
RGS16-Gao – modulates binding between human RGS16 and Galphao; binding response (% of control), % at 10 µM; hit rate 0.38% among 220,000; bead-based flow cytometry RGS16-Galphao binding, fluorescence; actives lie on both sides; AID 1441;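 active = below 25% or above 175%, edge rows of some plates excepted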;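 also: Galphao activated by GDP with aluminum fluoride before binding; 100% = wells without compound and 0% = beads without RGS; some results beyond the cut were filed as inactive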
Target sequence (O15492 whole entry, looked up): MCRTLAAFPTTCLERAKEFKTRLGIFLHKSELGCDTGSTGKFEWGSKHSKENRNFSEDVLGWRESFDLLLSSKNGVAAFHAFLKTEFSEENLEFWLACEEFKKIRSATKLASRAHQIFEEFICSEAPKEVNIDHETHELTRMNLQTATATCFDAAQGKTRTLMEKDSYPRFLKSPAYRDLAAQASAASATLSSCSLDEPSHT
Target sequence (P09471 whole entry, looked up): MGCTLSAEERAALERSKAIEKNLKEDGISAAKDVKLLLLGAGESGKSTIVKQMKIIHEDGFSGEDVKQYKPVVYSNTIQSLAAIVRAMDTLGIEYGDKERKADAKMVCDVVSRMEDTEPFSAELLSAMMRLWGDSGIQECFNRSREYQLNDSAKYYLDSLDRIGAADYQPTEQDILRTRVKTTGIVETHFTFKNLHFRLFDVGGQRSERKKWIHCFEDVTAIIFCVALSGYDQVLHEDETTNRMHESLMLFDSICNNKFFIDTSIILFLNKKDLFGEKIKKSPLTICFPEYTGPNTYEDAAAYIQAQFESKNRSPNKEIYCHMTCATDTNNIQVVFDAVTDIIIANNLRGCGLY
GALR2 agonist – GALR2 (human) receptor agonism; AID 803; O43603; hit rate 0.48% among 140,000; activation, %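 (tested at 5 µM)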; GALR2-expressing cells, agonist activation read-out;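 active = above mean plus 3 SD of all compounds, about 5% in these data, not always enough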;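 also: 0% = vehicle buffer wells and 100% = reference agonist at full effect; tested in CHO reporter cells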
Target sequence (O43603 whole entry, looked up): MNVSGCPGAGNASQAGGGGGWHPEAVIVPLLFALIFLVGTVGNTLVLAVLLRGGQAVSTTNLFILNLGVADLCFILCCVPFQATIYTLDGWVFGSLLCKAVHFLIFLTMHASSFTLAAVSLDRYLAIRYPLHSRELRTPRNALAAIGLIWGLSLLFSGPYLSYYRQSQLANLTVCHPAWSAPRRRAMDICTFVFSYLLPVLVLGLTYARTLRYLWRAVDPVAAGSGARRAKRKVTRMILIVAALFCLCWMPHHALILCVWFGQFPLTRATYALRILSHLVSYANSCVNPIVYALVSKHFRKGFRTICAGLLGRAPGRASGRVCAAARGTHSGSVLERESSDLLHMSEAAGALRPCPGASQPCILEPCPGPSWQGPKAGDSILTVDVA
HSV replic up – increases HSV replication in cells; hit rate 0.005% among 220,000; maximum fold increase; HSV replication augmentation in cells, fold increase;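 active = peak rise of 1.5-fold or more in the series; tested in PC3 cells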;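 also: first round at 10 µM; read as green reporter fluorescence; hits show the peak of a series up to 25 µM; 1 = signal of infected wells without compound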
PKD1 inh – inhibitors of human PKD1 kinase; Q15139; PKD1 kinase fluorescence polarization assay; inhibition, %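 (about 10 µM by stock and volumes)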; hit rate 0.056% among 200,000; AID 797;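 active = inhibition of 50% or more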;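 also: controls were vehicle for no effect and a reference inhibitor for full effect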
INS promoter inh cell count – further read-out of INS promoter inh, marked with its call; normalized cell count, %; measured here: cell count, toxicity; reference of the scale not given here;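 cells exposed to compound for 48 h; stained nuclei by imaging scaled within each plate; lower means fewer cells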
HSV replic up primary fold – recorded beside HSV replic up, whose call it bears; fold increase; compound at 10 µM; measured here: primary screen fold increase 10 uM; tested in PC3 cells;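 GFP signal in the first replicate; 1 = infected wells without compound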
* = called active by the depositor.

Screening Cc1ccc(-n2ncc(C(=O)NCc3ccc4c(c3)OCO4)c2NC(=O)c2ccco2)cc1C returned INS promoter inh 26.7, RGS16-Gao 84.2, GALR2 agonist 0.2, HSV replic up inactive, PKD1 inh -1.0, INS promoter inh cell count 82.9 and HSV replic up primary fold 0.96.
Screening CCN(CC)C(=O)Nc1c(C)n(C)n(-c2ccccc2)c1=O returned INS promoter inh 10.0, RGS16-Gao 106.4, GALR2 agonist -0.8, HSV replic up inactive, PKD1 inh 0.8, INS promoter inh cell count 109.9 and HSV replic up primary fold 1.03.
Screening O=C(NCc1cccnc1)C1c2ccccc2C(=O)N1Cc1ccco1 (centres undefined) returned INS promoter inh 3.6, RGS16-Gao 83.4, GALR2 agonist -1.1, HSV replic up inactive, PKD1 inh -6.6, INS promoter inh cell count 74.2 and HSV replic up primary fold 0.95.
Screening CCn1c(N2CCN(CC(=O)Nc3cccc(C)c3C)CC2)nc2ccccc21 returned INS promoter inh -32.3, RGS16-Gao 442.0, GALR2 agonist -3.2, HSV replic up inactive, PKD1 inh -0.3, INS promoter inh cell count 88.1 and HSV replic up primary fold 1.03.
For O=c1c(/C=N/O)coc2ccc3ccccc3c12 the results were INS promoter inh 14.3, RGS16-Gao 106.2, GALR2 agonist -1.3, HSV replic up inactive, PKD1 inh 6.3, INS promoter inh cell count 82.7 and HSV replic up primary fold 0.93.
`COc1ccc(CCNC(=O)CN(CCc2ccccc2)S(C)(=O)=O)cc1` gave RGS16-Gao 103.1, HSV replic up inactive, PKD1 inh 2.8 and HSV replic up primary fold 0.98.
For Cc1ccc(COC(=O)CCc2nc3ccccc3c(=O)[nH]2)cc1 the results were INS promoter inh 23.1, RGS16-Gao 30.2, GALR2 agonist -1.7, PKD1 inh 14.5 and INS promoter inh cell count 92.5.
`COCCN1C=C(C(=O)OC)C(c2ccc(OC)c(OC)c2)C(C(=O)OC)=C1` gave INS promoter inh 70.6*, RGS16-Gao 97.3, GALR2 agonist 0.3, HSV replic up inactive, PKD1 inh -1.9, INS promoter inh cell count 73.8* and HSV replic up primary fold 0.97.
Screening O=C(NCCNc1ccc([N+](=O)[O-])cc1C(F)(F)F)c1ccccc1F returned INS promoter inh -19.4, RGS16-Gao 102.2, GALR2 agonist -2.3, HSV replic up inactive, PKD1 inh -11.0, INS promoter inh cell count 131.7 and HSV replic up primary fold 0.86.
For O=C(C1CCN(S(=O)(=O)c2cnc[nH]2)CC1)N1CCN(c2ncccn2)CC1 the results were INS promoter inh 48.1, RGS16-Gao 103.9, GALR2 agonist -2.0, HSV replic up inactive, PKD1 inh -3.5, INS promoter inh cell count 54.3 and HSV replic up primary fold 1.03.
For C#Cc1ccc([C@H]2C=C(C(=O)Nc3ccccc3)O[C@@H](OCc3ccc(CO)cc3)C2)cc1 the results were RGS16-Gao 99.5, HSV replic up inactive and HSV replic up primary fold 1.08.
CC(C)C[C@H](NC(=O)c1ccc(OC2CCN(C(=O)C3CC3)CC2)cc1)C(N)=O was read as RGS16-Gao 104.9, HSV replic up inactive, PKD1 inh -4.9 and HSV replic up primary fold 1.09.
CC(C)Oc1ccc(/C=N/NC(=O)c2ccc(N(Cc3ccccc3)S(C)(=O)=O)cc2)cc1 was read as INS promoter inh 0.0, RGS16-Gao 101.6, GALR2 agonist -1.2, HSV replic up inactive, PKD1 inh -6.6, INS promoter inh cell count 76.6 and HSV replic up primary fold 0.94.
Screening COc1ccc(/C=N/NC(=S)Nc2cccc(C(=O)O)c2)cc1 returned INS promoter inh 45.0, RGS16-Gao 107.9, HSV replic up inactive, PKD1 inh -9.9, INS promoter inh cell count 153.8 and HSV replic up primary fold 0.91.
Screening COc1ccc(N2C(=O)CCC(C(=O)Nc3cccc(C)n3)C2c2ccc(OC)c(OC)c2)cc1 (centres undefined) returned INS promoter inh -25.0, RGS16-Gao 105.8, GALR2 agonist -1.2, HSV replic up inactive, PKD1 inh -12.2, INS promoter inh cell count 113.7 and HSV replic up primary fold 0.84.

2 compounds picked at random from the list so far:
Screening COc1ccc(/C=N/NC(=S)Nc2cccc(C(=O)O)c2)cc1 returned INS promoter inh 45.0, RGS16-Gao 107.9, HSV replic up inactive, PKD1 inh -9.9, INS promoter inh cell count 153.8 and HSV replic up primary fold 0.91.
Screening CCn1c(N2CCN(CC(=O)Nc3cccc(C)c3C)CC2)nc2ccccc21 returned INS promoter inh -32.3, RGS16-Gao 442.0, GALR2 agonist -3.2, HSV replic up inactive, PKD1 inh -0.3, INS promoter inh cell count 88.1 and HSV replic up primary fold 1.03.

(list continues)
Screening COc1cc([N+](=O)[O-])ccc1NC(=O)CCCOc1cccc(C)c1 returned INS promoter inh 8.3, RGS16-Gao 95.3, GALR2 agonist -1.7, HSV replic up inactive, PKD1 inh -3.4, INS promoter inh cell count 112.0 and HSV replic up primary fold 1.
`COc1ccc(-c2noc(CCC(=O)Nc3ccc(C)c(C)c3)n2)cc1` gave INS promoter inh 10.8, RGS16-Gao 96.8, GALR2 agonist 0.0, HSV replic up inactive, PKD1 inh -0.3, INS promoter inh cell count 73.2 and HSV replic up primary fold 0.92.
Screening CC(C(=O)N=Nc1c(O)[nH]c2ccccc12)n1cnc2ccccc2c1=O (centres undefined) returned INS promoter inh -53.9, RGS16-Gao 106.3, GALR2 agonist 0.1, PKD1 inh -6.0 and INS promoter inh cell count 121.2.
For Cc1ccc2oc(=O)c3cnn(CC(=O)NCCCOC(C)C)c3c2c1 the results were RGS16-Gao 105.7, GALR2 agonist -0.8, HSV replic up inactive, PKD1 inh -0.1 and HSV replic up primary fold 0.84.
`COCCNc1c2c(nc3c(-c4ccccc4)c(C)nn13)CCC2` gave RGS16-Gao 96.9, HSV replic up inactive and HSV replic up primary fold 1.06.
Screening Cc1ccc(-c2nnn(CC(=O)N(CCN3CCOCC3)C(C(=O)NC(C)(C)C)c3ccco3)n2)cc1 (centres undefined) returned RGS16-Gao 106.5, HSV replic up inactive, PKD1 inh -4.9 and HSV replic up primary fold 0.84.
`Cc1ccccc1OCC(=O)OC(C(=O)c1ccccc1)c1ccccc1` (centres undefined) gave INS promoter inh -10.3, RGS16-Gao 100.7, GALR2 agonist -2.2, HSV replic up inactive, PKD1 inh -9.9, INS promoter inh cell count 56.4 and HSV replic up primary fold 1.07.
For CN(C)c1ccc(NC(=O)CSc2nc(N)c(C(=O)Nc3ccc(N(C)C)cc3)s2)cc1 the results were INS promoter inh 10.3, RGS16-Gao 106.8, GALR2 agonist -0.6, HSV replic up inactive, PKD1 inh -7.1, INS promoter inh cell count 186.8 and HSV replic up primary fold 1.02.
Screening CCCCSc1nnc2c(n1)OC=Nc1ccccc1-2 returned RGS16-Gao 102.5, HSV replic up inactive and HSV replic up primary fold 0.99.
CC(=O)Nc1cc2c(cc1NC(=O)Cn1nnc(-c3ccc(C)o3)n1)OCCO2 was read as INS promoter inh -100.0, RGS16-Gao 98.2, HSV replic up inactive, PKD1 inh -11.8, INS promoter inh cell count 80.4 and HSV replic up primary fold 1.11.
CCCn1nnnc1NCc1ccc(F)cc1 was read as RGS16-Gao 102.8, HSV replic up inactive, PKD1 inh -4.6 and HSV replic up primary fold 0.94.
CO/N=C(\C(=O)N[C@@H]1C(=O)N2C(C(=O)O)=C(COC(N)=O)CS[C@H]12)c1ccco1 was read as INS promoter inh -33.3, RGS16-Gao 106.7, GALR2 agonist -0.2, HSV replic up inactive, PKD1 inh -3.2, INS promoter inh cell count 105.6 and HSV replic up primary fold 0.91.
`O=C1C=C(c2ccccc2)C(O)(c2ccccc2)C1` (centres undefined) gave RGS16-Gao 107.5, GALR2 agonist -1.7, HSV replic up inactive, PKD1 inh 8.8 and HSV replic up primary fold 0.91.
For COCCCNC(=O)c1cc(S(=O)(=O)N2CCOCC2)ccc1SCc1cccc(OC)c1OC the results were RGS16-Gao 101.2, HSV replic up inactive, PKD1 inh -5.0 and HSV replic up primary fold 1.03.
O=C(NC1CCCCCC1)c1nnc(Cc2ccc(Cl)cc2)o1 was read as INS promoter inh -5.0, RGS16-Gao 91.0, GALR2 agonist -2.6, HSV replic up inactive, PKD1 inh -12.1, INS promoter inh cell count 107.6 and HSV replic up primary fold 0.9.
`C/C(=N\NC(=O)c1cccc(N/N=C(\C)c2ccccc2)c1)c1ccccc1` gave INS promoter inh 35.3, RGS16-Gao 59.1, GALR2 agonist -2.6, HSV replic up inactive, PKD1 inh 7.2, INS promoter inh cell count 105.8 and HSV replic up primary fold 1.04.
`CCc1c(C)nc(SCCOc2ccc(OC(C)C)cc2)[nH]c1=O` gave INS promoter inh 13.3, RGS16-Gao 95.9, GALR2 agonist -0.6, HSV replic up inactive, PKD1 inh -3.4, INS promoter inh cell count 86.5 and HSV replic up primary fold 1.02.
CCNCCNc1ccc(Cl)cc1[N+](=O)[O-] was read as INS promoter inh 4.5, GALR2 agonist -0.6, HSV replic up inactive, PKD1 inh -1.1, INS promoter inh cell count 71.7 and HSV replic up primary fold 1.06.
Screening COc1ccc(C(c2nnnn2C(C)(C)C)N2CCN(C)CC2)cc1OC (centres undefined) returned RGS16-Gao 111.2, GALR2 agonist -0.7, HSV replic up inactive, PKD1 inh -3.7 and HSV replic up primary fold 0.94.
CCCn1c(SCC(=O)N2CCCCC2)nnc1-c1ccccn1 was read as INS promoter inh 0.0, RGS16-Gao 106.0, HSV replic up inactive, PKD1 inh -5.1, INS promoter inh cell count 115.4 and HSV replic up primary fold 0.96.
Screening CC1(C)Cc2c(C#N)c(N3CCN(C(=O)c4ccco4)CC3)nc(Cc3ccccc3)c2CO1 returned INS promoter inh 14.3, RGS16-Gao 97.4, GALR2 agonist -0.1, HSV replic up inactive, PKD1 inh -3.9, INS promoter inh cell count 174.6 and HSV replic up primary fold 1.08.
`N#C/C(=C\c1ccc(N2CCOCC2)c([N+](=O)[O-])c1)c1nc2ccccc2[nH]1` gave RGS16-Gao 102.7, GALR2 agonist 0.1, HSV replic up inactive, PKD1 inh 4.3 and HSV replic up primary fold 0.78.
Screening COC(=O)c1ccccc1NC(=O)c1cccc(COc2ccccc2Cl)c1 returned INS promoter inh -7.0, RGS16-Gao 103.4, GALR2 agonist -2.8, HSV replic up inactive, PKD1 inh -2.1, INS promoter inh cell count 39.6 and HSV replic up primary fold 0.937.
O=C(Nc1ccc(Cl)c(Cl)c1)OCCNC(=O)c1ccncc1 was read as RGS16-Gao 104.2, HSV replic up inactive, PKD1 inh 5.4 and HSV replic up primary fold 0.92.
Screening Cc1nc2ccc(NS(=O)(=O)c3ccc4c(c3)OCCO4)cc2s1 returned INS promoter inh 27.0, RGS16-Gao 97.5, GALR2 agonist -2.1, HSV replic up inactive, PKD1 inh -7.3, INS promoter inh cell count 61.6 and HSV replic up primary fold 0.78.
For CCOc1ccc(CC(=O)OCc2cc(=O)n3cc(Br)ccc3n2)cc1 the results were INS promoter inh 0.0, RGS16-Gao 102.2, HSV replic up inactive, PKD1 inh -0.6, INS promoter inh cell count 123.7 and HSV replic up primary fold 0.98.
Cc1cccn2c(=O)c3cc(C#N)c(=NC(=O)c4ccncc4)n(CCCOC(C)C)c3nc12 was read as INS promoter inh -50.0, RGS16-Gao 81.8, GALR2 agonist 2.0, HSV replic up inactive, PKD1 inh 2.9, INS promoter inh cell count 71.2 and HSV replic up primary fold 1.07.
For COCCNC(=O)Cn1cc(C(=S)N2CCCCC2)c2ccccc21 the results were RGS16-Gao 111.0, HSV replic up inactive, PKD1 inh -5.8 and HSV replic up primary fold 1.06.
For COc1cc2c3c(c1)-c1c(sn(-c4cc(OC)ccc4OC)c1=S)C(C)(C)N3C(=O)C2=O the results were INS promoter inh -16.7, RGS16-Gao 93.6, GALR2 agonist -2.1, HSV replic up inactive, PKD1 inh -8.4, INS promoter inh cell count 162.8 and HSV replic up primary fold 0.88.
`COc1ccc(CCN2C(=O)NC(NS(=O)(=O)c3ccc(Cl)cc3)(C(F)(F)F)C2=O)cc1OC` (centres undefined) gave INS promoter inh -9.1, RGS16-Gao 108.7, HSV replic up inactive, PKD1 inh -4.2, INS promoter inh cell count 119.4 and HSV replic up primary fold 1.01.
For CCC(C)NC(=O)CCSc1ccc(C)cc1 (centres undefined) the results were INS promoter inh -15.4, RGS16-Gao 103.5, GALR2 agonist -0.1, HSV replic up inactive, PKD1 inh -5.9, INS promoter inh cell count 71.4 and HSV replic up primary fold 0.88.
Screening O=C(c1ccccc1)N1CCN=C1SCc1ccc([N+](=O)[O-])cc1 returned RGS16-Gao 100.9, GALR2 agonist -1.4, HSV replic up inactive, PKD1 inh 2.2 and HSV replic up primary fold 0.84.
O=C(O)c1ccc(NC(=O)C2CC=CCC2C(=O)O)cc1 (centres undefined) was read as INS promoter inh -8.6, RGS16-Gao 62.8, GALR2 agonist -0.9, HSV replic up inactive, PKD1 inh -0.5, INS promoter inh cell count 135.8 and HSV replic up primary fold 0.96.
COC(=O)c1scc(C)c1NS(=O)(=O)c1ccc(NC(C)=O)cc1 was read as RGS16-Gao 98.6, HSV replic up inactive and HSV replic up primary fold 1.23.
